# Env fusion inh = HIV envelope-mediated fusion inhibition; HeLa-JRFL Env/CEM21 cell fusion, luciferase; inhibition, % at 12.3 µM; hit rate 1.1% among 360,000; AID 651610;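 active = mean replicate inhibition score of at least 50 and every replicate individually at or above 50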;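 also: 0% = plate neutral controls and 100% = maraviroc near 300 nM; one replicate is shown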
# MT1-MMP act inh = MT1-MMP (human) activation inhibition | P50281 | HT1080 RFP-PRO-GFP cells, GFP/RFP ratio fluorescence, overnight; percent of plate control window, DMSO zero | GFP/RFP ratio change, % at 20 µM | hit rate 0.061% among 360,000;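 active = GFP/RFP ratio change of at least 30% with cell ATP level not reduced by more than half and red fluorescence within 50% of control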; also: strong numbers were not always called active
#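 Test system: HT1080 cells expressing an RFP-PRO-GFP fluorescent reporter construct / Compound dosing: single-point 20 µM compound, 1% DMSO / Schedule: cells overnight before dosing, compound overnight, 37 °C, 5% CO2 / Evaluation: GFP/RFP fluorescence ratio / Control set: DMSO and RFP-L50D-GFP cell wells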
# Rce1 inh = yeast Ras-converting enzyme inhibition. Q03530. calls only. yeast membranes, quenched prenylated peptide cleavage fluorescence. hit rate 0.27% among 290,000;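 active = fall in fluorescence gain of 50% or more versus controls, with final raw signal at or below 3038400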;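 also: plate controls were neutral control wells for no effect and wells lacking membranes for full effect; tested at 10 µM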
# UUG fidelity = yeast start codon fidelity modulation. S. cerevisiae UUG-firefly luciferase reporter, luminescence/redox ratio. activity score, % at 18.7 µM. hit rate 0.13% among 350,000. AID 602363;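 active = replicate mean at a twofold rise or more, about +100% in these data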;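 also: firefly luciferase made from a UUG start codon reports start codon fidelity; reporter light over untreated wells divided by growth signal over untreated wells; some hits fall short of that in this replicate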
# eIF4H inh = inhibitors of RNA binding by human eIF4H; hit rate 0.94% among 290,000; eIF4H fluorescence polarization binding assay; inhibition, % at 35 µM;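 active = 50% or more with normal probe brightness, or confirmed in later tests; about a fifth of its hits are not listed in these tables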;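 also: calls also rest on retests at 20 µM and on dose response follow-up; 0% = protein and probe with vehicle and 100% = probe without protein; strong numbers were not always called active; many hits fall short of the cut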
# PABP polyA inh = PABP-poly(A) binding inhibition; P11940; PABP-poly(A) RNA binding, fluorescence polarization; inhibition, % at 35 µM; hit rate 1% among 290,000; AID 2014;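 active = 50% or more with normal probe brightness, or confirmed in later tests; about a fifth of its hits are not listed in these tables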;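 also: calls also rest on retests at 20 µM and on dose response follow-up; controls were probe without protein and protein plus probe with vehicle; some compounds called inactive have numbers as strong as hits; many hits fall short of the cut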
# Target sequence (P11940 whole entry, looked up): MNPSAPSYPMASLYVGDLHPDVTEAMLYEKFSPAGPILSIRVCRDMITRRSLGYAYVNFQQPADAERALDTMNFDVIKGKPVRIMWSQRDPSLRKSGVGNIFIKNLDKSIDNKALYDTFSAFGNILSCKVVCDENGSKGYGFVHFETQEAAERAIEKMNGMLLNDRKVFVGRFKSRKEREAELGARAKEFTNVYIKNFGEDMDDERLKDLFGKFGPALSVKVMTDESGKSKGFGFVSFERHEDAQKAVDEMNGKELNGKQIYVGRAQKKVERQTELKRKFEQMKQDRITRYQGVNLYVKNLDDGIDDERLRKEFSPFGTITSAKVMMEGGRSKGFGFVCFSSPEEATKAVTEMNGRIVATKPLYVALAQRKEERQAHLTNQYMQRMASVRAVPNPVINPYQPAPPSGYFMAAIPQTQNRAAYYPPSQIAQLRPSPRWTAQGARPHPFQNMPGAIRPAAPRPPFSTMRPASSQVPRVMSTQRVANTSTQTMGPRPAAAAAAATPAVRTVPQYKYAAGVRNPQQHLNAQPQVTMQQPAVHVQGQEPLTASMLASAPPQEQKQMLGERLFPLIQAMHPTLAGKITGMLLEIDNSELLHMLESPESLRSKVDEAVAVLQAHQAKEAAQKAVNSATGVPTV
# CSC inhib = cancer stem cell inhibition | cancer stem cell-like cells viability, luminescence | inhibition, % at 7.5 µM | hit rate 1.1% among 300,000;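 active = mean at 75% or more and at least half the replicates too; tested in HMLE shEcad cells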;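 also: 0% = median of negative and 100% = median of positive control wells; the first replicate is given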
# MT1-MMP act inh RFP = further read-out of MT1-MMP act inh, marked with its call; RFP signal change, %; measured here: RFP expression control read;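 0 = vehicle wells; hits needed this value within 50% of zero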
# Starred values were filed as active, the others as inactive; i = inactive; . = no result given; + = active, no number. An excerpt; rates above refer to the full screens.
# Sample of the layout, two compounds:
SMILES,Env fusion inh,MT1-MMP act inh,MT1-MMP act inh RFP,Rce1 inh,UUG fidelity,eIF4H inh,PABP polyA inh,CSC inhib
O=C(COC(=O)c1ccc(NS(=O)(=O)c2cccs2)cc1O)Nc1ccc(F)cc1,15,5,-5,i,6,-7,-4,7
COc1cccc(OCc2nc(-c3cccc([N+](=O)[O-])c3)no2)c1,2,4,3,i,.,-1,-9,-11

# The listing, from the first entry:
SMILES,Env fusion inh,MT1-MMP act inh,MT1-MMP act inh RFP,Rce1 inh,UUG fidelity,eIF4H inh,PABP polyA inh,CSC inhib
O=C(COC(=O)c1ccc(NS(=O)(=O)c2cccs2)cc1O)Nc1ccc(F)cc1,15,5,-5,i,6,-7,-4,7
COc1cccc(OCc2nc(-c3cccc([N+](=O)[O-])c3)no2)c1,2,4,3,i,.,-1,-9,-11
CC1CC(C)CN(C(=O)/C=C/c2ccc([N+](=O)[O-])s2)C1 (stereo not given),-12,-29,-6,i,5,-1,-9,.
COc1ccccc1C(=O)C1CCCN(C(=O)CSc2ccccn2)C1 (stereo not given),11,6,2,i,4,-7,-12,.
O=C(O)c1ccccc1OCCOCCOc1ccccc1C(=O)O,-80,4,0,.,.,-5,-2,5
O=C(O)CN1C(=O)SC(Nc2ccc(C(=O)O)cc2)C1=O (stereo not given),.,0,6,i,.,4,-2,24
Cc1ccc(NS(=O)(=O)c2ccc(NC(=O)c3cccs3)cc2)c(C)c1,5,1,-7,i,.,-3,-9,8
O=C1c2ccccc2C(=O)c2cc(S(=O)(=O)Nc3ccccc3)ccc21,2,3,-3,i,-10,-16,-7,41
Cc1ccc(N(C(=O)c2csnn2)C(C(=O)NC(C)(C)C)c2ccccn2)cc1 (stereo not given),27,-1,2,i,.,-2,-10,-13
COc1ccc(Cl)cc1NC(=S)N1CCN(S(C)(=O)=O)CC1,-24,3,1,i,.,12,2,11
COc1ccccc1/C=N/n1c(C)nnc1-n1nc(C)cc1C,.,2,5,i,-7,-4,-11,-5
CCn1c(CNC(=O)c2cccs2)nnc1SCC(=O)NCCc1ccccc1,-12,2,2,i,-8,-7,8,.
CCOC(=O)c1sc(-c2ccc(Br)cc2)cc1N,.,-3,1,i,-21,4,4,11
Cn1c(=O)c2c(nc(NCCNC(=O)c3ccco3)n2Cc2ccc(F)cc2)n(C)c1=O,5,-1,-6,i,-12,0,-3,0
CCC(C)c1ccc(NC(=S)N2CCN(c3ccccn3)CC2)cc1 (stereo not given),.,2,-1,i,-16,-13,3,-18
COc1cccc(C(=O)Nc2nc3ccccc3[nH]2)c1,.,10,4,i,.,0,-5,1
Cc1cccc(CN2CCC(CNC(=O)C3CCCN(S(=O)(=O)c4cnc[nH]4)C3)CC2)c1 (stereo not given),.,-7,-2,.,-7,-18,11,.
CCOc1cc2[nH]c(=S)n(CCOC)c(=O)c2cc1OCC,-50,13,-2,i,-12,-5,1,-10
O=C(NCc1ccccc1)Nc1nnc([C@@H]2C[C@H](O)[C@@H](CO)O2)s1,-8,0,-1,.,7,.,.,.
CCN1CCCC1CNC(=O)CSCc1nc(-c2ccccc2C)oc1C (stereo not given),14,3,4,i,-21,1,-3,26
O=C(CNC(=O)c1ccco1)N/N=C/c1cccs1,12,-3,-2,i,.,10,7,0
O=C(Nc1ccc(Br)cc1)c1cccc(OC(=S)N2CCOCC2)c1,-16,-9,-33,i,-17,9,-10,14
COC(CNC(=O)c1ccc2c(c1)nc(C)n2-c1cccc(F)c1)OC,-16,0,7,i,6,-9,-5,-10
O=C(O)/C=C/C(=O)NCCC1=CCCCC1,-10,1,8,i,.,0,-15,-13
CCc1nn(CC(=O)NCCCN(C)C2CCCCC2)c(=O)c2cc3occc3n12,.,-2,0,i,-9,1,4,-1

# Continuation.
SMILES,Env fusion inh,MT1-MMP act inh,MT1-MMP act inh RFP,Rce1 inh,UUG fidelity,eIF4H inh,PABP polyA inh,CSC inhib
Cc1ccc(NC(=O)CCC(=O)NNC(=O)c2ccccc2[N+](=O)[O-])c(C)c1,22,.,.,i,.,-4,-9,-7
COC(=O)Cn1c(=NC(=O)c2sc3ccccc3c2Cl)sc2cc(S(N)(=O)=O)ccc21,.,-8,2,i,.,15,-2,-13
CC(=O)c1c(O)ccc2c(-c3ccccc3)cc(=O)oc12,.,1,1,i,.,-6,17,-13
Cc1cc(F)ccc1S(=O)(=O)N1CCC2(CC1)OCCN2S(=O)(=O)c1cccs1,7,-2,-10,i,-15,.,.,2
CCCn1c(N)c(C(=O)CSc2nnc(C)n2Cc2ccccc2)c(=O)n(C)c1=O,.,0,2,i,-21,6,-4,-7
O=C(OCC(=O)N1CCOCC1)c1cccc(F)c1,-12,-1,0,i,-19,8,-4,-10
O=C(CSc1nnc(-c2ccccc2NC(=O)c2ccccc2)o1)OC1CCCCC1,.,0,8,i,-8,.,.,-8
CCOC(=O)c1cnn(-c2ccc(C)cc2)c1N,-29,6,6,i,-8,-14,-2,-1
COc1ccc(-c2cc(C(=O)Nc3cc(OC)c(OC)c(OC)c3)no2)cc1OC,.,-4,-1,i,-11,-3,-9,.
CC(=O)N1CCCc2cc(S(=O)(=O)N3CCCC(C(=O)NCc4ccc(C)cc4)C3)ccc21 (stereo not given),-3,1,-11,i,-20,2,9,-9
Cc1cc(N/N=C/c2ccc(O)cc2O)nc(N2CCOCC2)n1,-4,11,-6,i,-10,9,7,8
CC(=O)c1ccc(NC(=O)Nc2ccc(Cl)cc2)cc1,.,-5,-5,i,.,29,2,3
CC(=O)N1c2ccc(S(=O)(=O)N3CCC(C(=O)N4CCN(c5ccc(Cl)cc5)CC4)CC3)cc2CC1C (stereo not given),20,-8,-24,i,-15,-1,0,2
CC(=O)c1ccc(NC(=O)CCc2ccc(C)o2)cc1,-28,4,0,i,-1,4,-2,-21
CCCCc1ccc(NC(=O)CN2C(=O)NC(Cc3ccccc3)C2=O)cc1 (stereo not given),0,13,-3,.,5,.,.,.
Cc1ccc(C(=O)N/N=C/c2ccoc2)cc1C,-25,1,6,i,-16,8,4,10
CCOC(=O)C1CCN(C(=O)CSC2=NCCS2)CC1,.,0,1,.,-20,-5,-3,33
Cc1cccc(-n2nc3c(c2NC(=O)c2ccco2)CS(=O)(=O)C3)c1C,-5,0,1,i,.,-10,3,4
COCOc1ccc(/C=C/C(=O)c2c(OCOC)cc(OCOC)c(CC=C(C)C)c2O)cc1OCOC,.,0,-4,i,-1,.,.,-5
COc1ccc(S(=O)(=O)N2CCCCC2)cc1NS(=O)(=O)c1ccc(CNC(C)=O)cc1,-91,1,7,.,-2,.,.,-2
O=C(O)CC(NC(=O)C(c1ccccc1)c1ccccc1)c1ccc(F)cc1 (stereo not given),15,2,3,i,.,-1,-2,-3
COc1ccc(OCC(=O)c2c(O)c3ccccc3oc2=O)cc1,.,-1,4,i,-8,-3,23,-2
O=C(Nc1ccc(Cl)c(Cl)c1)C1=Cc2ccccc2OC1,.,-9,-4,i,-11,-4,-2,50
CCCOc1ccc(C(=O)OCCN2CCCCC2)c(O)c1,9,2,1,i,.,.,.,33
CCNC(=O)c1cnn(-c2ccccc2)c1-c1ccccc1,20,1,1,i,.,-5,9,2

# By substructure, those above with fluorine
SMILES,Env fusion inh,MT1-MMP act inh,MT1-MMP act inh RFP,Rce1 inh,UUG fidelity,eIF4H inh,PABP polyA inh,CSC inhib
O=C(COC(=O)c1ccc(NS(=O)(=O)c2cccs2)cc1O)Nc1ccc(F)cc1,15,5,-5,i,6,-7,-4,7
Cn1c(=O)c2c(nc(NCCNC(=O)c3ccco3)n2Cc2ccc(F)cc2)n(C)c1=O,5,-1,-6,i,-12,0,-3,0
COC(CNC(=O)c1ccc2c(c1)nc(C)n2-c1cccc(F)c1)OC,-16,0,7,i,6,-9,-5,-10
Cc1cc(F)ccc1S(=O)(=O)N1CCC2(CC1)OCCN2S(=O)(=O)c1cccs1,7,-2,-10,i,-15,.,.,2
O=C(OCC(=O)N1CCOCC1)c1cccc(F)c1,-12,-1,0,i,-19,8,-4,-10
O=C(O)CC(NC(=O)C(c1ccccc1)c1ccccc1)c1ccc(F)cc1 (stereo not given),15,2,3,i,.,-1,-2,-3

# Some of the entries above, reformatted.
molecule	Env fusion inh	MT1-MMP act inh	MT1-MMP act inh RFP	Rce1 inh	UUG fidelity	eIF4H inh	PABP polyA inh	CSC inhib
CC(=O)c1ccc(NC(=O)Nc2ccc(Cl)cc2)cc1	.	-5	-5	i	.	29	2	3
CCCn1c(N)c(C(=O)CSc2nnc(C)n2Cc2ccccc2)c(=O)n(C)c1=O	.	0	2	i	-21	6	-4	-7
CCNC(=O)c1cnn(-c2ccccc2)c1-c1ccccc1	20	1	1	i	.	-5	9	2
CC(=O)N1c2ccc(S(=O)(=O)N3CCC(C(=O)N4CCN(c5ccc(Cl)cc5)CC4)CC3)cc2CC1C (stereo not given)	20	-8	-24	i	-15	-1	0	2
O=C(O)CC(NC(=O)C(c1ccccc1)c1ccccc1)c1ccc(F)cc1 (stereo not given)	15	2	3	i	.	-1	-2	-3

# The list goes on.
SMILES,Env fusion inh,MT1-MMP act inh,MT1-MMP act inh RFP,Rce1 inh,UUG fidelity,eIF4H inh,PABP polyA inh,CSC inhib
CCCC(=O)Nc1ccc2c(c1)C(=O)N(C)C[C@@H](OC)[C@H](C)CN(Cc1ccc(-c3ccccn3)cc1)[C@@H](C)CO2,-5,-1,5,.,2,.,.,.
O=C1COc2ccc(C(=O)c3ccccc3C(=O)O)cc2N1,.,-4,-1,i,-16,-7,-14,-8
CCCOc1ccc(-c2nc3c(c(=O)[nH]c(=O)n3Cc3ccccc3)n2CCO)cc1OCC,-8,-3,-2,+,-10,5,2,-1
O=C(O)CN1C(=O)/C(=C\c2cc(Br)ccc2OCc2ccc(Cl)cc2)SC1=S,-8,-2,1,i,-5,32,23,98*
COc1ccccc1NC(=O)CSc1ncn(-c2ccccc2)n1,-1,9,0,i,-2,-4,-11,-8
COc1ccc(-c2noc(CCC(=O)NC3CCCCC3)n2)cc1OC,-190,1,2,.,5,0,0,7
Nc1ccc(CNc2ncn[nH]2)cc1,4,-4,0,i,-24,0,-4,-6
COc1ccc(NC(=S)NC(=NS(=O)(=O)c2ccc(Cl)cc2)c2ccccc2)cc1,-163,2,-1,.,-16,.,.,35
COc1ccc(/C=C/C(=O)c2ccc3ccccc3c2O)cc1CN1CCOCC1,-72,2,-4,i,.,0,-15,14

# Screens deposited in PubChem BioAssay by several laboratories.
